High-throughput results: PubChem, ICCB-Longwood Screening Facility, Harvard Medical School
GIV-Gai inh: inhibitors of GIV GBA-motif binding to rat Galpha-i3. P08753. Galpha-i3/FITC-GIV peptide fluorescence polarization, 90 min; hits give low values; scaled: aluminum fluoride 0%, vehicle 100%. percent of control (FP), % (concentration not given with the values). 210,000 tested, 0.42% active. AID 1224905;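 active means replicate mean at 85% of control or lower, very high polarization wells dropped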;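 further: wells of about 15 µL received 100 nL stock; the first replicate is given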
Target sequence (P08753 whole entry, looked up): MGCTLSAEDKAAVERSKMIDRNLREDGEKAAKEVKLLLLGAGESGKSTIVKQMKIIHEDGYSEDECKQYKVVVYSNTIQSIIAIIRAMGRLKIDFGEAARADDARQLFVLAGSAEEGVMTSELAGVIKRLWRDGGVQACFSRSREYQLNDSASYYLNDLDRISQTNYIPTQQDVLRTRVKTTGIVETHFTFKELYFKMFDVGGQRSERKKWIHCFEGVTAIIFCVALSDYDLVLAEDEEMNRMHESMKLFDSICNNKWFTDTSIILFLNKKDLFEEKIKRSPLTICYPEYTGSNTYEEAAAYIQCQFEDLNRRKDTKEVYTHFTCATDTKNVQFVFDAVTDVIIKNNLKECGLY
HCMV UL50-53 inh: disrupts HCMV UL50-UL53 complex binding; HTRF UL50-UL53 interaction, normalized percent inhibition; inhibition, % (no concentration beside the values); 190,000 tested, 0.15% active; AID 1918969;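 active means both replicates at 50% or more, plus weaker picks with an unusually low signal ratio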;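 further: stock transfer was 100 nL into about 20 µL; 0% = negative control wells and 100% = wells with untagged competitor protein; inactives centre near -12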
Sa growth 42C: blocks Staphylococcus aureus growth. S. aureus RN4220 growth, OD600, 20 h, 42 °C; hits give low values. relative growth, % (test concentration not listed). 170,000 tested, 0.53% active. AID 720641;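 active means growth at 42 °C up to 50% and 20 or more points under that at 30 °C, or under 10% at both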;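 further: 300 nL library stock went into each well; scaled to the means of positive and negative controls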
Sa growth 42C second temp: second read-out of Sa growth 42C, no call of its own (marks repeat the call); relative growth, %; measured here: growth at 30 °C;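 optical density after 20 h as mean of two plates; 100% = untreated growth and lower means inhibition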
* = called active by the depositor; / = not tested or not shown.

Molecule,GIV-Gai inh,HCMV UL50-53 inh,Sa growth 42C,Sa growth 42C second temp
Cc1c(O)ccc2c(CN(C)CC3COc4ccccc4O3)cc(=O)oc12 (stereo not drawn),/,-12,88,68
COc1ccnc(N2CCN(C(=O)OC(C)(C)C)CC2)n1,/,-4,99,91
O=C(NCCc1nc2ccccc2[nH]1)c1ccc(Cl)c(Cl)c1,106,/,113,75
CCCNC(=O)N1CCN(c2cccc(C(F)(F)F)c2)CC1,105,-18,99,97
Cc1cc(C)cc(NC(=O)NCCn2nnc3cc(S(=O)(=O)N(C)C)ccc32)c1,112,/,113,94
Cc1ccc(S(=O)(=O)CCSCc2csc3ccccc23)cc1,99,-2,142,96
O=C(CCn1cccc1)N1CCN(c2ccccc2F)CC1,107,-18,/,/
CCS(=O)(=O)N1CCN(c2ccnc3cc(Cl)ccc23)CC1,100,-13,90,88
CN1/C(=C\C(=O)c2cccc(Cl)c2)C(C)(C)c2ccccc21,102,/,99,84
CC(=O)N1CCc2cc(Br)cc(S(=O)(=O)NN3CCN(c4ccc(F)cc4)CC3)c21,105,13,94,103
O=S(=O)(c1ccccc1)n1cccc1,104,-17,99,85
Cc1cc(C(=O)NCc2ccc(F)cc2)n(-c2ccccc2)n1,99,/,91,72
COc1ccccc1NC(=O)CSC1=Nc2ccccc2C2=NC(CC(=O)NCc3ccco3)C(=O)N12 (stereo not drawn),108,/,110,103
O=C(CSc1n[nH]c(=O)c2cc(-c3ccc(F)cc3)nn12)c1ccc2c(c1)OCO2,107,-11,/,/
Cc1c(S(=O)(=O)N2CCCc3ccccc32)cnn1-c1ccccc1,102,40,100,90
COc1cc(Nc2ncc3c(n2)CCN(S(=O)(=O)c2ccc(C)c(C)c2)C3)cc(OC)c1,110,-14,/,/
COc1ccc(Br)c(-c2nc3ccccc3c(=O)o2)c1,103,-8,112,99
CCOCCCNC(=O)c1cn(CC(C)C)c(=O)c2c1c1ccccc1n2C,103,-8,104,88
Cc1cc2nn(-c3ccc(F)cc3)nc2cc1NC(=O)c1ccc2c(c1)OCCO2,101,-10,/,/
CN1CC(=O)N(CCOc2ccccc2)C1=O,/,-1,93,93
Cc1ccccc1N1CC(c2nnc(NC(=O)c3ccco3)s2)CC1=O (stereo not drawn),99,-5,98,94
Cc1cccc2sc(N(CCCN(C)C)C(=O)c3ccccc3Cl)nc12,108,10,/,/
O=C(CSc1ccccc1)NCc1ccccc1,96,5,96,96
Cc1ccc(NC(=O)c2nnc(CCCC(=O)NCCc3c[nH]c4ccc(C)cc34)s2)cc1,101,5,/,/
CC1CCCCC1NC(=O)Cn1nc(-c2ccc(Cl)cc2)ccc1=O (stereo not drawn),107,/,95,78
O=C(Nc1ccc2c(c1)OCCO2)N1CCC(CN2CCc3ccccc3C2)CC1,100,/,86,90
COc1ccc(-n2c3c(cc(-c4nc(-c5ccc(Cl)cc5)cs4)c2=O)C(=O)CC(C)(C)C3)cc1Cl,100,-16,99,85
FC(F)(F)c1cccc(OCc2nn[nH]n2)c1,102,-27,84,76
S=c1[nH]nc(-c2cccs2)n1CC1CCCO1 (stereo not drawn),/,-22,71,78
Cn1c(=O)c2c(nc(NC3CCCC3)n2C)n(C)c1=O,109,-22,87,87
CC(=O)N1c2ccc(S(=O)(=O)N3CCCCCC3)cc2CC1C(=O)NCc1ccc(Cl)cc1 (stereo not drawn),106,/,85,95
Cc1cc(C(=O)N2CCN(c3ccccc3)CC2)no1,103,-11,/,/
Clc1cccc(-n2ncc3c(NCCC4=CCCCC4)ncnc32)c1,100,/,111,92
COc1cc(N2CCCC2)c(OC)cc1CO,98,-12,98,83
COCCCNC(=O)C1CCN(C(=O)c2oc3cc4sc(N(C)C)nc4cc3c2C)CC1,102,-6,/,/
O=C(COC(=O)c1c(F)cccc1Cl)NCC1CCCCC1,/,-24,89,87
CC1CCCCN1C(=O)c1cnc2sccn2c1=O (stereo not drawn),97,2,112,92
Cc1ccccc1-c1noc(CCCn2c(=O)[nH]c3cc4c(cc3c2=O)OCO4)n1,106,-3,/,/
Cc1cccc2c(=O)c(NC(=O)NCC3CC3)c[nH]c12,102,-4,94,93
S=c1[nH]nc(-c2ccncc2)n1C1CC1,/,-2,98,93
O=C(O)C1C2C=CC(C2)C1C(=O)Nc1ccc(C(=O)N2CCCCC2)cc1 (stereo not drawn),102,-12,94,92
N#Cc1c(/N=C/c2ccco2)oc(-c2ccccc2)c1-c1ccccc1,97,-6,94,76
CCC(=O)c1cc2c(cc1N)OCCO2,/,-7,94,87
Cc1ccc(NC(=O)CSc2nccn2Cc2ccc3c(c2)OCO3)c(C)c1,102,/,124,86
COc1ccc(NC(=O)CSc2nc(C)cc(C)c2C(=O)Nc2cccc(C)c2)cc1,107,3,92,96
Cn1c(C(F)(F)F)nnc1S(=O)(=O)Cc1ccc(-c2csnn2)cc1,100,6,100,98
COCCn1cnc2c(sc3nc4c(cc32)COC(C)(C)C4)c1=O,98,-2,92,81
COc1cc(/C=C2\SC(=O)N(C)C2=O)ccc1OCC(=O)Nc1ccc(S(N)(=O)=O)cc1,/,-12,80,91
Cc1cc(C)n(-c2nc3cc(Cl)c(Cl)cc3nc2Nc2c(C)cccc2C)n1,109,-10,86,89
Cc1ccc(-c2nc(C(=O)Nc3ccc(F)cc3)c3n2CCCCC3)cc1,108,-8,/,/
CCS(=O)(=O)Nc1ccc(N2CCCC2)cc1C(=O)O,103,-61,/,/
Cc1ccc(S(=O)(=O)c2cc3cc(C(=O)O)ccc3oc2=O)cc1,95,-33,94,90
CCOc1ccc(-c2cc(NC(=O)Nc3ccc(Cl)cc3)c(C(=O)OC)s2)cc1,105,-13,107,84
Nc1c(C(=O)NCC2CCCO2)sc(=S)n1-c1ccc(Cl)cc1 (stereo not drawn),100,-110,/,/
CCc1ccc(C2C3=C(CC(c4ccccc4O)CC3=O)Nc3onc(C)c32)cc1 (stereo not drawn),100,6,/,/
C=CCn1cnnc1SCc1nnc(-c2ccco2)o1,/,4,118,93
Cc1ccc(CSc2ncnc3c2oc2ccccc23)cc1,105,0,102,87
CCOC(=O)c1oc2ccccc2c1CSc1nc2ccccc2n1CCC#N,/,-28,100,82
CC(Oc1ccccc1)C(=O)NC1CCCCC1 (stereo not drawn),102,-8,110,98
Cc1ccc2c(CN3CCN(C(=O)C4Cc5ccccc5CN4S(C)(=O)=O)CC3)cc(=O)oc2c1 (stereo not drawn),109,-5,113,50

Arranged by value in GIV-Gai inh (ascending): six of the compounds above
smiles,GIV-Gai inh,Sa growth 42C,Sa growth 42C second temp
N#Cc1c(/N=C/c2ccco2)oc(-c2ccccc2)c1-c1ccccc1,97,94,76
CCc1ccc(C2C3=C(CC(c4ccccc4O)CC3=O)Nc3onc(C)c32)cc1 (stereo not drawn),100,/,/
Cc1cccc2c(=O)c(NC(=O)NCC3CC3)c[nH]c12,102,94,93
COc1ccc(Br)c(-c2nc3ccccc3c(=O)o2)c1,103,112,99
Cc1ccc(CSc2ncnc3c2oc2ccccc23)cc1,105,102,87
CC1CCCCC1NC(=O)Cn1nc(-c2ccc(Cl)cc2)ccc1=O (stereo not drawn),107,95,78

The list continues.
Compound	GIV-Gai inh	HCMV UL50-53 inh	Sa growth 42C	Sa growth 42C second temp
O=C(Cn1cnc2c(nnn2Cc2ccc(F)cc2)c1=O)c1ccc(Cl)cc1	104	-4	95	88
COc1cc2c(=O)n(CCC(=O)NCC3CCCO3)c(=O)n(CC(=O)Nc3ccc(F)cc3)c2cc1OC (stereo not drawn)	102	28	84	92
CCOC(=O)CCc1c(C)nc2ccc(C)cn2c1=O	102	/	112	96
Cc1cc(C)n2nc(CN(c3ccc(F)cc3)S(=O)(=O)c3ccccc3)nc2n1	102	6	/	/
CCOC(=O)Cn1c(=O)n(C2CCCCC2)c2nc(-c3ccccc3Cl)nc(C(N)=O)c21	104	/	106	90
Cn1nc(C(=O)NCCc2ccc(F)cc2)c2ccccc2c1=O	/	-3	85	94
COCCOC(=O)C1=C(C)NC2=C(C(=O)CC(c3ccc(OC)c(OC)c3)C2)C1c1cccc(Cl)c1 (stereo not drawn)	105	-23	/	/
CC(Oc1ccccc1Cl)C(=O)Nc1onc2c1CCCC2 (stereo not drawn)	101	-18	/	/
CCOC(=O)c1c(-c2ccco2)csc1NC(=O)COC(=O)CCc1nc2ccccc2c(=O)[nH]1	/	-29	93	91
CC1=C(C#N)C(NC(=O)c2cccc(Cl)c2)(C(F)(F)F)C(=O)N1 (stereo not drawn)	102	-6	105	91
O=C(CS(=O)(=O)Nc1ccc(F)cc1Cl)Nc1ccc(F)cc1Cl	100	-50	55	18
Cc1cccn2c(=O)c3cc(C(=O)NCc4ccccc4Cl)sc3nc12	103	0	100	88
O=C1CS(=O)(=O)N(Cc2ccccc2)c2ccsc21	105	-56	78	75
Cc1ccc(-c2csc3nc(Cc4ccccc4)oc(=O)c23)cc1	104	-4	/	/
CC1=C(C(=O)Nc2ccc(C(=O)O)cc2)SCCO1	100	-27	97	85
Cc1nc2ccccc2[nH]1	/	9	105	94
CC(C)(C)c1ccc2cc(C#N)c(C#N)cc2c1	101	-34	89	85
COc1cc2c(cc1NC(=O)C(C)Sc1nnc(C)c(=O)n1N)oc1ccccc12 (stereo not drawn)	/	-5	82	98
Clc1snnc1COc1ccc2c(c1)OCO2	100	-3	108	76
CCOc1ccc(NC(=O)c2oc(=O)c3ccccc3c2-c2ccc(C)cc2)cc1	99	/	131	98
CCSc1nc2ccc(N)cc2s1	106	-13	74	102
COc1ccc(Cl)cc1NC(=O)CSc1nc2ccccc2c2nc(-c3ccccc3)nn12	104	/	99	89
Cc1nn(C)c(=O)c2ccccc12	97	-30	98	77
Cc1ccc(C)c(NC(=O)c2cnc3ccccn3c2=O)c1	103	-39	/	/
CCc1ccc(-c2[nH]c3c(c2-c2c(-n4cccc4)n(C)c(=O)n(C)c2=O)c(=O)n(C)c(=O)n3C)cc1	113	-10	95	92
CCN1CCSc2ccc(C(=O)NCCN3CCOCC3)cc21	101	-9	92	91
Cc1ccc2nc(Nc3nc(CSc4nnc(C)s4)cc(=O)[nH]3)nc(C)c2c1	104	1	103	81
CN(C)c1cccc(C(=O)NO)c1	/	20	100	102
Cc1nc2ccccn2c1P(=O)(N1CCCCC1)N1CCCCC1	/	0	78	92
O=C1c2ccc(-c3ncc(-c4ccccc4)o3)cc2C(=O)N1c1ncn[nH]1	100	/	97	78

Structural class: those above with a cyano group (four)
Compound	GIV-Gai inh	HCMV UL50-53 inh	Sa growth 42C	Sa growth 42C second temp
N#Cc1c(/N=C/c2ccco2)oc(-c2ccccc2)c1-c1ccccc1	97	-6	94	76
CCOC(=O)c1oc2ccccc2c1CSc1nc2ccccc2n1CCC#N	/	-28	100	82
CC1=C(C#N)C(NC(=O)c2cccc(Cl)c2)(C(F)(F)F)C(=O)N1 (stereo not drawn)	102	-6	105	91
CC(C)(C)c1ccc2cc(C#N)c(C#N)cc2c1	101	-34	89	85

Next structures
Compound	GIV-Gai inh	HCMV UL50-53 inh	Sa growth 42C	Sa growth 42C second temp
O=C(c1cc(-c2ccc(F)cc2)on1)N1CCN(c2ccc(F)cc2)CC1	109	-25	99	89
CN1C(=O)c2ccccc2Sc2ccc(NC(=O)COc3ccc(F)cc3)cc21	104	/	109	92
CCOc1ccccc1NC(=O)C1CCC(CNS(=O)(=O)c2ccc3c(c2)CCCC(=O)N3)CC1 (stereo not drawn)	94	/	89	87
O=C(CSc1nc2c(c(=O)[nH]1)CSC2)c1ccc(Cl)cc1	103	-34	92	86
CCOc1ccccc1N(CC(=O)Nc1ccc(OC)c(Cl)c1)S(=O)(=O)c1ccccc1	108	/	110	102
CCCc1nnc2sc(COc3cccc(OC)c3)nn12	113	-4	/	/
CCOC(=O)N1CCN(C(=O)c2cccs2)CC1	/	-2	82	90
COc1ccc(CCN(C)c2nc(N)c3c(N)nc(SCC(=O)O)cc3c2C#N)cc1OC	/	82*	0.7*	0.3*
O=c1c(O)c(-c2ccc(F)c(Oc3ccccc3)c2)oc2ccccc12	/	-12	62	67

Quoted at random: four compounds from above.
Compound	GIV-Gai inh	HCMV UL50-53 inh	Sa growth 42C	Sa growth 42C second temp
CCOCCCNC(=O)c1cn(CC(C)C)c(=O)c2c1c1ccccc1n2C	103	-8	104	88
COc1ccc(NC(=O)CSc2nc(C)cc(C)c2C(=O)Nc2cccc(C)c2)cc1	107	3	92	96
CC1=C(C(=O)Nc2ccc(C(=O)O)cc2)SCCO1	100	-27	97	85
CCOc1ccccc1NC(=O)C1CCC(CNS(=O)(=O)c2ccc3c(c2)CCCC(=O)N3)CC1 (stereo not drawn)	94	/	89	87
